Screens deposited in PubChem by National Center for Advancing Translational Sciences (NCATS).
ClpP mod = qHTS Assay for Activators of ClpP; AID 651965, 2013; Potency, µM (doses to about 57.5 µM), inactives show at the highest dose activity change, negative = active; purified B. subtilis ClpP, FRET peptide cleavage, 20 min; 340,000 tested, 1.9% active; active = well fitted falling curve with a large enough effect; inconclusive = small, poorly fitted or top-dose-only effect; inactive = no such curve, though single readings can be large or run the other way; also: potency is read from the fitted curve at half-maximal effect; the source files actives as falling curves though it sought activators and does not explain the sign; nearly all actives have a fitted effect of over 65% in size; many hits overshoot -100%
Target sequence (P80244 whole entry, looked up): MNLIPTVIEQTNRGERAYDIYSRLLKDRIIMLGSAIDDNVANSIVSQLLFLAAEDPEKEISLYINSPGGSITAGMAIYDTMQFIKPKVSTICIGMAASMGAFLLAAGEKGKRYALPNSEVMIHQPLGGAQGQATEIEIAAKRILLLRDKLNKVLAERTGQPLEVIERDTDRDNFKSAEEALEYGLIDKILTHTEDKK
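Buffer: 100 mM Tris/HCl pH8, 100 mM KCl, 0.05% low protease BSA, 2.5% glycerol, 0.01% Tween-20. ClpP 10 microg/mL final; 20 min RT; delta FRET normalized to ADEP and DMSO controls.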
CtBP-E1A inh = inhibitors of CtBP/E1A interaction; AlphaScreen GST-E1A/His-CtBP binding, 1536-well; active compounds read low; control for the full effect not named in the record; activity change, % (no concentration beside the values); 340,000 tested, 0.49% active; in the data active means activity change below about -65%; inconclusive means about -30% to -65%; inactive means above about -30%; also: % is scaled to controls: 0 for no effect and ±100 for the full control effect
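Protein mix (5X: 125 nM each GST-E1A, His-CtBP) was incubated with pinned compound 2 h at 37 deg C in dark, in 50 mM Tris pH 8.0 buffer with 300 mM NaCl. Glutathione donor and nickel acceptor beads followed; AlphaScreen signal read after 1 h.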
Sfp inh = blocks B. subtilis Sfp PPTase activity. Q9F4F7. Biochemical Sfp PPTase activity, qHTS. Potency, µM, for inactives: max response, negative = inhibition, usual class: inhibitors. 310,000 tested, 3.5% active. AID 1490; active = well fitted inhibition curve with a large enough effect; inconclusive = small, poorly fitted or top-dose-only effect, or another doubt; inactive = no such curve, though single readings can be large or run the other way;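 also: the enzyme is Sfp with the accession as filed and its product quenches rhodamine fluorescence; potency is read from the fitted curve at half-maximal effect; 0% = enzyme reaction without inhibitor and -100% = no enzyme wells; top concentration of the series not given in the record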
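Step 1, compound plus 15 nM Sfp-PPTase, 15 min, room temperature. Step 2, add rhodamine-CoA (5 uM) and BHQ-2-YbbR (12.5 uM). Step 3, read 525/598 nm fluorescence at 0 and 30 min.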
gsp antagonist = antagonists of gsp mutant (McCune-Albright syndrome) | 340,000 tested, 0.4% active | Potency, µM (top dose mostly 76.9 µM), without a hit: at the highest dose activity change, negative = inhibition, usual class: inhibitors | gsp-mutant cells, cAMP HTRF, 30 min; control for the full effect not named in the record | AID 624288; active = falling curve of any shape with a large fitted effect; inconclusive = falling curve, mostly with a smaller effect; inactive = flat or rising curve; cell line not stated here;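 also: intracellular cAMP measured with PDE inhibitor Ro 20-1724 present during compound exposure; potency is read from the fitted curve at half-maximal effect; % is scaled to controls: 0 for no effect and ±100 for the full control effect; nearly all actives have a fitted effect of over 65% in size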
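G418-selected cells were plated in DMEM/10% FBS for 16-24 h at 37C, then treated with compounds plus the PDE inhibitor […] (300 uM solution added) for 30 min at 37C. Intracellular cAMP was measured by HTRF after 30 min lysis at room temperature.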
Menin-MLL FL inh = inhibitors of human menin-MLL interaction, wild-type MLL peptide | Fluorescence polarization, fluorescein-MLL peptide displacement from menin | FP activity change, % at 61.4 µM | 290,000 tested, under 10 active | AID 1766; inconclusive = falling polarisation curve, or a change in total fluorescence; inactive = total fluorescence flat and polarisation flat or rising; no compound was filed as active; the % refers to the polarisation; negative = inhibition;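 also: % of control where 0% means no effect; inhibitors lower the polarisation; unlabelled MLL peptide was the positive control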
gsp agonist = gsp mutant agonism | Potency, µM (top dose mostly 76.9 µM), without a hit: top-dose activation (cAMP increase), actives largely listed as activators | 340,000 tested, 0.13% active | AID 624287 | gsp mutant cells, cAMP HTRF, 30 min; control for the full effect not named in the record; active = well fitted activation curve with a large enough effect; inconclusive = small, poorly fitted or top-dose-only effect, or another doubt; inactive = no such curve, though single readings can be large or run the other way; cell line not stated here;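 also: phosphodiesterase inhibitor Ro 20-1724 added with compounds to block cAMP breakdown; potency is read from the fitted curve at half-maximal effect; nearly all actives have a fitted effect of over 60% in size; about a fifth of the inactives were tested at one dose only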
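Cells stably selected in G418 were plated at 2000/well, grown 16-24 hr, then given compounds in DMSO with the PDE inhibitor […] (300 uM solution added) for 30 min at 37C; cAMP was read by HTRF.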
TRPV1 potentiator = potentiators of human vanilloid receptor 1 (TRPV1); TRPV1-expressing cells, Fluo-8 calcium influx, capsaicin EC20 potentiation; host cell line not named in the record; control for the full effect not named in the record; 320,000 tested, 0.02% active; AID 540277; potentiation, % at 8.33 µM; active means potentiation above 80%; inconclusive means 30% to 80%; inactive means below 30%; also: 0% is about no effect
Target sequence (Q8NER1 whole entry, looked up): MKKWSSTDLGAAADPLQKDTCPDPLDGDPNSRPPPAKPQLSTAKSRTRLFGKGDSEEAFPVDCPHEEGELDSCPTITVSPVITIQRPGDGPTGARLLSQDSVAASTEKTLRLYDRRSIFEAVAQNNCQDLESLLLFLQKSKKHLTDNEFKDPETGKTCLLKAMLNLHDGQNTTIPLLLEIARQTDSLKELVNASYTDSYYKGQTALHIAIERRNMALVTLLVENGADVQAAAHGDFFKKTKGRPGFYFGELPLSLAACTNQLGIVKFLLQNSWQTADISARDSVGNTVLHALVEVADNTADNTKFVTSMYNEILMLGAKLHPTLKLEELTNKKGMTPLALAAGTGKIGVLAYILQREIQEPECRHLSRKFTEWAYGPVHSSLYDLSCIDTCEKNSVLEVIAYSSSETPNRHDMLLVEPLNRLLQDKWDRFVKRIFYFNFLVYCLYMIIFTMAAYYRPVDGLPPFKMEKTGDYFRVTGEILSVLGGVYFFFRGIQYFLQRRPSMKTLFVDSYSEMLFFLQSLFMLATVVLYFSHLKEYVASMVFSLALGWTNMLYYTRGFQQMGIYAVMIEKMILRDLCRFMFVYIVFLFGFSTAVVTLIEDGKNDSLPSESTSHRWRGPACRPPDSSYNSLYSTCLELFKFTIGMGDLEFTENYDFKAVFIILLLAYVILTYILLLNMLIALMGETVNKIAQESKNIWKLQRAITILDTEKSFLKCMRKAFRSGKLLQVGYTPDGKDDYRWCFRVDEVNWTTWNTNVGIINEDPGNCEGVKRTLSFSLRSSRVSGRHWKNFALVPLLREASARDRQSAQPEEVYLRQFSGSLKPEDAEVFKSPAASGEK
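TRPV1-expressing cells were cultured overnight at 35.5C and loaded with Fluo-8 calcium dye for 40 to 90 min at room temperature. After a 10 s baseline, compound was added and calcium influx was read kinetically for 3 min (ex 480/em 520 nm).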
The depositor's hits bear a star; [ ] = dose if it differs, or a comment.

What do the screens show for `Nc1cc(N)nc(SCc2ccc(Cl)cc2)n1`?
ClpP mod: 0.7%; CtBP-E1A inh: 11; Sfp inh: -10%; gsp antagonist: -11%; Menin-MLL FL inh: -4.0; gsp agonist: 16%[15.4 µM]; TRPV1 potentiator: -15

Results for CCCC(CCC)C(=O)Nc1c[nH]c(=O)[nH]c1=O ?
ClpP mod: -0.2%; CtBP-E1A inh: 5; Sfp inh: 19%; gsp antagonist: -1%; Menin-MLL FL inh: 0.2; gsp agonist: -47%; TRPV1 potentiator: 2

Results for O=C(O)c1ccc(Cl)c(S(=O)(=O)N(Cc2ccccc2)c2ccc(Cl)cc2)c1 ?
CtBP-E1A inh: -18; Sfp inh: 19%; gsp antagonist: -3%; Menin-MLL FL inh: -1.4; gsp agonist: -10%; TRPV1 potentiator: 0

How did O=C(OCC(=O)N1CCN(c2ccccc2)CC1)c1ncc(Cl)c(Cl)c1Cl do in these assays?
CtBP-E1A inh: 3; gsp antagonist: -6%; gsp agonist: 8%[15.4 µM]; TRPV1 potentiator: 3

Results for CC1CC(OC(=O)C(O)c2ccccc2)CC(C)(C)N1C (configuration not stated) ?
ClpP mod: 1.8%; CtBP-E1A inh: 0; Sfp inh: 6%; gsp antagonist: 1%; Menin-MLL FL inh: -1.8; TRPV1 potentiator: -11

Results for CC1CCN(C(=O)COC(=O)CCC(=O)c2cccs2)CC1 ?
ClpP mod: -2.3%; CtBP-E1A inh: -4; gsp antagonist: 6%; gsp agonist: 11%; TRPV1 potentiator: 6

What do the screens show for `CCOC(=O)c1ccc(N(CC(=O)NCC2CCCO2)C(=O)CCC(=O)Nc2cc(C)on2)cc1` (configuration not stated)?
ClpP mod: inconclusive; CtBP-E1A inh: 22; Sfp inh: 9%; gsp antagonist: -4%; Menin-MLL FL inh: 0.7; gsp agonist: 36%[15.4 µM]; TRPV1 potentiator: 18

Results for CCOC(=O)CN(C(=O)CSc1nnc(COc2ccc(OC)cc2)n1CC)c1ccccc1 ?
CtBP-E1A inh: 1; Sfp inh: 0%; gsp antagonist: -17%; Menin-MLL FL inh: 3.9; gsp agonist: -17%[15.4 µM]; TRPV1 potentiator: -12

What do the screens show for `COc1ccc(C2CCCN2C(=S)Nc2cccc(Cl)c2)cc1OC` (configuration not stated)?
CtBP-E1A inh: -4; Sfp inh: 15%; gsp antagonist: -19%; Menin-MLL FL inh: -1.8; gsp agonist: 1%; TRPV1 potentiator: 8

Results for O=C(Nc1ccc(NC(=O)C2CCCCC2)nc1)c1cccs1 ?
CtBP-E1A inh: 0; Sfp inh: 16%; gsp antagonist: -6%; Menin-MLL FL inh: -0.5; gsp agonist: -20%[15.4 µM]; TRPV1 potentiator: 6

How did N#Cc1ccccc1OCC(=O)NNC(=O)CCNC(=O)c1ccccc1 do in these assays?
ClpP mod: -5.8%; CtBP-E1A inh: -7; gsp antagonist: 9%; gsp agonist: 5%[15.4 µM]

How did CC(Sc1nc2ccccc2c(=O)n1CCCN1CCOCC1)C(=O)N1CCc2ccccc21 (configuration not stated) do in these assays?
CtBP-E1A inh: 2; gsp antagonist: -4%; gsp agonist: 2%[15.4 µM]

Results for c1cncc(CNCc2ccco2)c1 ?
ClpP mod: -0.6%; CtBP-E1A inh: 8; Sfp inh: -26%; gsp antagonist: -3%; Menin-MLL FL inh: -1.8; gsp agonist: inconclusive; TRPV1 potentiator: -14

Results for Cn1c(=O)c2cc(S(=O)(=O)NCCC(=O)Nc3ccc(F)cc3F)ccc2n(C)c1=O ?
ClpP mod: -0.8%; Sfp inh: 8%; gsp antagonist: 2%; Menin-MLL FL inh: -1.3; gsp agonist: 5%; TRPV1 potentiator: 20

What do the screens show for `CC(C)C1N=C2c3ccccc3N=C(SCC(=O)c3ccc(O)c(O)c3)N2C1=O` (configuration not stated)?
ClpP mod: 1.3%; CtBP-E1A inh: 4; Sfp inh: 6%; gsp antagonist: -7%; Menin-MLL FL inh: 3.7; gsp agonist: -4%[15.4 µM]; TRPV1 potentiator: 9

What do the screens show for `O=C(COc1ccc(F)c(Cl)c1)c1ccc[nH]1`?
ClpP mod: 0.0%; CtBP-E1A inh: 1; Sfp inh: -6%; gsp antagonist: 9%; Menin-MLL FL inh: 3.7; gsp agonist: 2%; TRPV1 potentiator: -1

Results for COc1ccc(Cc2nnc(SCC(=O)N3CCc4ccccc4C3)o2)cc1 ?
ClpP mod: -11%; CtBP-E1A inh: -12; Sfp inh: -5%; gsp antagonist: -17%; Menin-MLL FL inh: -1.5; gsp agonist: 1%; TRPV1 potentiator: -19

What do the screens show for `CN(C)S(=O)(=O)c1cccc(NC(=O)c2cc3c(cc2Cl)N2CCCCCC2=NS3(=O)=O)c1`?
CtBP-E1A inh: 1; Sfp inh: 11%; gsp antagonist: 0%; Menin-MLL FL inh: -0.5; gsp agonist: -2%; TRPV1 potentiator: 21

What do the screens show for `CCOc1ccc(N(C)S(=O)(=O)c2cc(-c3cc(C)no3)ccc2C)cc1`?
ClpP mod: -1.0%; CtBP-E1A inh: 11; Sfp inh: 6%; gsp antagonist: -22%; Menin-MLL FL inh: 2.8; gsp agonist: 1%; TRPV1 potentiator: -4

How did O=C1c2ccc([N+](=O)[O-])cc2C(=O)N1CNc1ccccn1 do in these assays?
CtBP-E1A inh: 4; Sfp inh: 10%; gsp antagonist: 11%; Menin-MLL FL inh: -0.4; gsp agonist: -20%[15.4 µM]; TRPV1 potentiator: -5

Results for O=C(Nc1nccs1)c1ccc([N+](=O)[O-])cc1Cl ?
ClpP mod: -1.4%; Sfp inh: 16%; gsp antagonist: 3%; Menin-MLL FL inh: 1.5; gsp agonist: -26%; TRPV1 potentiator: -10

What do the screens show for `CN(CC(=O)Nc1c(Cl)cccc1Cl)C(=O)Cc1cccs1`?
ClpP mod: 1.1%; CtBP-E1A inh: 11; gsp antagonist: 10%; gsp agonist: -11%; TRPV1 potentiator: inconclusive

How did CSc1nc(N)nc2c1ncn2CC(=O)NCCNc1ccc([N+](=O)[O-])cn1 do in these assays?
ClpP mod: -1.7%; CtBP-E1A inh: -1; gsp antagonist: 7%

What do the screens show for `O=C(Nc1ccc(F)cc1)c1cccc(NC(=O)C2C3CC4OC(=O)C2C4C3)c1` (configuration not stated)?
ClpP mod: -1.0%; CtBP-E1A inh: -2; Sfp inh: 13%; gsp antagonist: -1%; Menin-MLL FL inh: 1.7; gsp agonist: inconclusive; TRPV1 potentiator: 12

What do the screens show for `COc1cccc(N2C(=O)CC(N3CCN(S(=O)(=O)c4ccccc4[N+](=O)[O-])CC3)C2=O)c1` (configuration not stated)?
ClpP mod: 0.5%; CtBP-E1A inh: -3; gsp antagonist: -9%; gsp agonist: 6%

Results for CC(OC(=O)CCN=C1NS(=O)(=O)c2ccccc21)C(=O)N(C)c1ccccc1 (configuration not stated) ?
ClpP mod: 0.5%; CtBP-E1A inh: -3; gsp antagonist: 2%; gsp agonist: 17%[15.4 µM]; TRPV1 potentiator: -7

How did CN(C(=O)COc1cc(C(F)(F)F)nn1C)c1ccccc1 do in these assays?
ClpP mod: 2.3%; Sfp inh: 22%; gsp antagonist: 7%; Menin-MLL FL inh: 2.4; gsp agonist: -16%; TRPV1 potentiator: 1

What do the screens show for `CS(=O)(=O)N1N=C(c2ccc3nccnc3c2)CC1c1ccccc1` (configuration not stated)?
ClpP mod: -1.6%; CtBP-E1A inh: -9; Sfp inh: 12%; gsp antagonist: 2%; Menin-MLL FL inh: 0.9; gsp agonist: 26%; TRPV1 potentiator: 2

How did O=C(CSc1nnnn1-c1ccccc1)N1CCc2ccccc21 do in these assays?
ClpP mod: 0.1%; CtBP-E1A inh: 9; Sfp inh: 7%; gsp antagonist: 2%; Menin-MLL FL inh: 4.5; gsp agonist: 5%; TRPV1 potentiator: -19

How did CC(OC(=O)c1cccc(S(=O)(=O)N(C)C)c1)C(=O)NCC(=O)Nc1ccc(F)c(F)c1F (configuration not stated) do in these assays?
ClpP mod: -2.6%; CtBP-E1A inh: -15; gsp antagonist: 4%; gsp agonist: -2%

Results for Cn1nccc1NC(=O)Nc1ccc(Cl)cc1 ?
ClpP mod: 0.4%; Sfp inh: -8%; gsp antagonist: 6%; Menin-MLL FL inh: 3.4; gsp agonist: -9%; TRPV1 potentiator: -19

What do the screens show for `Cc1ccc(NC(=S)Nc2ccc(F)cc2)cc1C`?
ClpP mod: -3.8%; CtBP-E1A inh: -11; Sfp inh: 6%; gsp antagonist: 5%; Menin-MLL FL inh: -0.8; gsp agonist: 15%; TRPV1 potentiator: 7

Results for N#Cc1cc2cc3c(cc2nc1SCC(=O)OC1CCCCC1)OCO3 ?
ClpP mod: -4.3%; CtBP-E1A inh: 8; Sfp inh: -7%; gsp antagonist: 5%; Menin-MLL FL inh: 1.9; gsp agonist: inconclusive; TRPV1 potentiator: -29

What do the screens show for `CC(=O)NNc1nc(-c2ccccc2)c2cc(Br)ccc2n1`?
ClpP mod: 0.9%; CtBP-E1A inh: 2; Sfp inh: 6%; gsp antagonist: -12%; Menin-MLL FL inh: 1.0; gsp agonist: -4%; TRPV1 potentiator: 13

Results for C[C@H](CO)N1C[C@H](C)[C@@H](CN(C)Cc2ccc(C(=O)O)cc2)Oc2ccc(NC(=O)Cn3cnnn3)cc2C1=O ?
ClpP mod: -5.4%; CtBP-E1A inh: -5; gsp antagonist: -1%

How did CCOC(=O)N/N=C\c1ccc(-c2cccc(C(F)(F)F)c2)o1 do in these assays?
CtBP-E1A inh: 15; Sfp inh: -4%; gsp antagonist: -18%; Menin-MLL FL inh: 2.3; gsp agonist: 23%[15.4 µM]; TRPV1 potentiator: -7

Results for CC(C)CCNC(=O)CN(Cc1ccccc1)C(=O)CCC(=O)Nc1ccccn1 ?
CtBP-E1A inh: -1; Sfp inh: 10%; gsp antagonist: 13%; Menin-MLL FL inh: 0.4; gsp agonist: 15%; TRPV1 potentiator: 8

What do the screens show for `COc1ccc(C2CC(c3cccs3)=NN2c2nc(-c3ccccc3)cs2)cc1OC` (configuration not stated)?
ClpP mod: 0.2%; CtBP-E1A inh: 10; Sfp inh: 45µM*; gsp antagonist: 6%; Menin-MLL FL inh: 5.7; gsp agonist: -35%[inhibitor]; TRPV1 potentiator: -3
